# MLL AF4-AF9 inh: MLL-AF4/AF9 protein interaction inhibition. AID 651704. inhibition, % at 10 µM. AlphaScreen, biotin-AF4 peptide binding to FLAG-AF9. P42568. 350,000 compounds, 0.47% hits;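 active = every replicate reaching a set inhibition limit, whatever the replicate mean, cut at about 25% in these data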;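 note: 0% = plate neutral control median and 100% = total signal loss; the record names both 10 and 1 µM as test concentration; the first replicate is given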
# Target sequence (P42568 whole entry, looked up): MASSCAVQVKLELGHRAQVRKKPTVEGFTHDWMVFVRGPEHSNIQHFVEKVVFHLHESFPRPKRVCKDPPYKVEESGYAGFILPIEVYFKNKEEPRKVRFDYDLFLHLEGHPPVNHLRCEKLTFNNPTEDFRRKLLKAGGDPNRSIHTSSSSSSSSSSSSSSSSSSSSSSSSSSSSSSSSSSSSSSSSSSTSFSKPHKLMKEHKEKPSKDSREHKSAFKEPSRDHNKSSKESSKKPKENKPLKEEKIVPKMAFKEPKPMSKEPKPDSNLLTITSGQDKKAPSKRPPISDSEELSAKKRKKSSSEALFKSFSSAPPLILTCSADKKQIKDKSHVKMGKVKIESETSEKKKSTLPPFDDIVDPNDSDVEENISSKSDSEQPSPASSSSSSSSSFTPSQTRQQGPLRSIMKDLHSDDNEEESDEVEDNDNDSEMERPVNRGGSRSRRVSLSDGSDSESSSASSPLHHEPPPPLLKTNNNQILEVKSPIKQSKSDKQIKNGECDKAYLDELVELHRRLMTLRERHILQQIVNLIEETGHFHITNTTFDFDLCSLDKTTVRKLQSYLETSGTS
# * = called active by the depositor; & = joins results of further samples. A portion of the library, so the mix of outcomes need not match the whole.
SMILES,MLL AF4-AF9 inh
COc1ccc(S(=O)(=O)Nc2ccc3c(c2)C(=O)N([C@H](C)CO)C[C@H](C)[C@@H](CN(C)C(=O)Cc2ccccc2)OCCCC[C@@H](C)O3)cc1,-4.0
CC(C)NC(=O)Nc1ccc2c(c1)C(=O)N([C@@H](C)CO)C[C@@H](C)[C@@H](CN(C)S(=O)(=O)c1cccs1)OCCCC[C@H](C)O2,-1.8
COc1ccc(NC(=O)Nc2ccc3c(c2)C(=O)N([C@H](C)CO)C[C@H](C)[C@@H](CN(C)C(=O)Nc2ccc4c(c2)OCO4)OCCCC[C@H](C)O3)cc1,-1.9
CC(C)NC(=O)N(C)C[C@H]1OCCCC[C@H](C)Oc2ccc(NC(=O)C3CCCCC3)cc2C(=O)N([C@@H](C)CO)C[C@@H]1C,-0.1
N#C[C@H]1[C@H](c2ccc(C#CC3CCCCC3)cc2)[C@@H](CO)N1C(=O)c1cccc(F)c1,-12
Cc1ccc(Cc2c(-c3ccc(Cl)cc3)nc3c(C)cc(Br)cn23)cc1,-1.8
Cc1ccc(-c2cnc3c(c2)C(=O)N([C@H](C)CO)C[C@@H](C)[C@@H](CN(C)C(=O)c2cccc(F)c2)O3)cc1,-2.4
COc1ccc(CNC(=O)C[C@@H]2C=C[C@@H](NC(=O)c3ccc4c(c3)OCO4)[C@@H](CO)O2)cc1,2.1
Cc1ccc(S(=O)(=O)N(C)C[C@H]2Oc3ccc(NC(=O)Nc4ccc(F)cc4)cc3C(=O)N([C@H](C)CO)C[C@@H]2C)cc1,1.3
C[C@@H]1CCCCO[C@H](CN(C)C(=O)Nc2ccc(C(F)(F)F)cc2)[C@H](C)CN([C@@H](C)CO)C(=O)c2cc(NC(=O)NC3CCCCC3)ccc2O1,-3.4
OC[C@@H]1[C@H](c2ccc(-c3ccccc3)cc2)[C@H]2CN(Cc3cncnc3)CCCCN12,3.1
O=C(C[C@H]1CC[C@H]2[C@@H](COC[C@@H](O)CN2C(=O)Nc2ccc(Cl)c(Cl)c2)O1)NCc1ccccc1,0.1
O=C(C[C@@H]1CC[C@H]2[C@@H](COC[C@H](O)CN2Cc2cccc(Cl)c2)O1)NCc1cccc(F)c1,-2.0
Cc1ccc(C(O)c2ncc(-c3cccc(C(F)(F)F)c3)[nH]2)cc1 (stereo not given),-0.4
CC1=C(C(=O)N2CCCCCC2)CC(CC(=O)NCCc2ccccn2)C(=O)N1CCCN1CCCC1=O (stereo not given),0.7
CN(C)C(=O)C[C@@H]1CC[C@@H]2[C@H](COC[C@H](O)CN2Cc2ccc(C(F)(F)F)cc2)O1,-1.3
C[C@@H](NC(=O)C[C@@H]1CC[C@@H](NC(=O)Cc2ccccn2)[C@H](CO)O1)c1ccccc1,1.4
C[C@@H]1CCCCO[C@H](CN(C)Cc2ccncc2)[C@@H](C)CN([C@@H](C)CO)C(=O)c2cc(NS(=O)(=O)c3cccs3)ccc2O1,1.5
O=C(C1CCCC1)N1CC(=O)N2[C@H](CO)[C@@H](c3ccc(-c4cccnc4)cc3)[C@@H]2C1,-1.5
COc1ccc(NC(=O)Nc2ccc3c(c2)C(=O)N([C@H](C)CO)C[C@H](C)[C@H](CN(C)C(=O)NC2CCCCC2)OCCCC[C@H](C)O3)cc1,-0.4
CCc1c(-c2ccc(F)cc2)ncn1CCc1ccccc1OC,18
C[C@@H]1CN([C@@H](C)CO)C(=O)CCCn2nncc2CO[C@@H]1CN(C)Cc1ccc(C(=O)Nc2ccccc2N)cc1,-8.3
CCCNC(=O)[C@H]1[C@H](CO)[C@H]2Cn3c(ccc(-c4ccccc4F)c3=O)[C@@H]1N2C(C)=O,-1.7
C[C@H](CO)N1C[C@H](C)[C@H](CN(C)Cc2ccc(C(F)(F)F)cc2)Oc2ccc(NC(=O)Cc3ccccc3)cc2C1=O,1.2
CC1(C(=O)NS(=O)(=O)c2cccc(C#N)c2)CCN1C(=O)Cc1ccc(Cl)cc1Cl (stereo not given),-2.2
COCC#Cc1ccc2c(c1)O[C@H](CN(C)S(=O)(=O)c1ccc(C)cc1)[C@@H](C)CN([C@H](C)CO)S2(=O)=O,0.1
Cc1ccc(S(=O)(=O)Nc2ccc3c(c2)C(=O)N([C@@H](C)CO)C[C@@H](C)[C@@H](CN(C)C(=O)NC(C)C)OCCCC[C@H](C)O3)cc1,-2.8&1.3
COc1ccc(-c2[nH][nH]c(=O)c2NC(=O)c2ccccc2Br)cc1,-3.7
O=[N+]([O-])c1ccc(COc2ccccc2CO)cc1,-0.3
C[C@H]1CCCCO[C@H](CN(C)C(=O)Nc2ccccc2)[C@@H](C)CN([C@@H](C)CO)C(=O)c2cc(NC(=O)CCC(F)(F)F)ccc2O1,-0.7
C[C@@H]1CN([C@H](C)CO)C(=O)c2cc(NS(=O)(=O)c3ccccc3)ccc2O[C@@H]1CN(C)S(=O)(=O)c1ccccc1,-2.6
CCCNC(=O)N1[C@H](C#N)[C@H](c2ccc(-c3cccc(OC)c3)cc2)[C@@H]1CO,0.3
CCCN1C[C@H](C)[C@H](OC)CN(C)C(=O)c2ccc(NC(=O)CC(F)(F)F)cc2OC[C@@H]1C,-2.8
C[C@H]1CN([C@@H](C)CO)C(=O)c2cc(NC(=O)Cc3cn(C)c4ccccc34)ccc2O[C@H]1CN(C)C(=O)Nc1ccccc1,0.5
CCC(=O)Nc1ccc2c(c1)OC[C@H](C)N(C(=O)COC)C[C@@H](C)[C@@H](OC)CN(C)C2=O,-10
C[C@H](CO)N1C[C@H](C)[C@@H](CN(C)C(=O)NC2CCCCC2)Oc2ccc(NC(=O)C3CC3)cc2CC1=O,-2.8
C[C@@H]1CN([C@H](C)CO)C(=O)c2cccc(NC(=O)Nc3ccc(F)cc3)c2O[C@H]1CN(C)Cc1ccccc1,-1.1
O=C(N[C@@H]1CC[C@H](CCn2cc(C3CCCCC3)nn2)O[C@H]1CO)c1cccnc1,-6.0
C[C@H](CO)N1C[C@H](C)[C@H](CN(C)Cc2ccccc2)OCc2ccccc2-c2c(n(C)c3ccccc23)C1=O,0.6
COc1ccccc1C(=O)Nc1ccc2c(c1)C(=O)N(C)C[C@@H](OC)[C@@H](C)CN(CC1CC1)[C@@H](C)CO2,-13
CN(C)CC(=O)N1[C@@H](CO)[C@@H](c2ccccc2)C12CN(C(=O)c1cccc(F)c1)C2,1.3
C[C@@H]1CN([C@@H](C)CO)C(=O)c2cc(C3=CCCC3)cnc2O[C@@H]1CN(C)C(=O)CN(C)C,-0.2
O=S(=O)(N[C@H]1CC[C@H](CCn2cc(-c3ccccn3)nn2)O[C@H]1CO)c1cccc(F)c1,-0.7
Cc1noc(C)c1S(=O)(=O)Nc1ccc2c(c1)CC(=O)N([C@H](C)CO)C[C@@H](C)[C@@H](CN(C)Cc1ccccc1)O2,-1.6
CC(=O)Nc1ccc2c(c1)C(=O)N(C)[C@@H]1CC[C@H](CC(=O)Nc3cn(C)nc3C)O[C@@H]1CO2,0.0
O=C(NCC[C@H]1CC[C@H](NS(=O)(=O)c2cccc(F)c2)[C@@H](CO)O1)Nc1cc(F)ccc1F,-1.6
C[C@@H]1CCCCO[C@@H](CN(C)Cc2ccc(Cl)c(Cl)c2)[C@H](C)CN([C@@H](C)CO)C(=O)c2cc(N(C)C)ccc2O1,40*
CCOC(=O)C1=CCC(c2ccccc2)N(S(=O)(=O)c2ccccc2[N+](=O)[O-])C1 (stereo not given),3.7
CCC(=O)N(C)C[C@@H]1Oc2ncc(-c3ccccc3C)cc2C(=O)N([C@H](C)CO)C[C@H]1C,-3.0
O=c1c(-c2ccccc2)nc2ccccc2n1C(CCc1ccccc1)c1nc2ccccc2[nH]1 (stereo not given),5.5

# More entries
SMILES,MLL AF4-AF9 inh
C[C@H](CO)N1C[C@H](C)[C@H](CN(C)Cc2ccncc2)Oc2ccc(NC(=O)C3CC3)cc2CC1=O,-1.0
Cc1ccccc1S(=O)(=O)NCC[C@@H]1CC[C@@H](NC(=O)Nc2cccc(Cl)c2)[C@H](CO)O1,1.0
O=C(C[C@@H]1CC[C@@H]2[C@H](COC[C@H](O)CN2CC2CCOCC2)O1)NCC1CCCCC1,-2.9
C[C@H]1CN([C@@H](C)CO)S(=O)(=O)c2ccc(C3=CCCCC3)cc2O[C@@H]1CN(C)C(=O)CC1CC1,2.5
O=C(NCC[C@H]1CC[C@H](NC(=O)c2ccc3c(c2)OCO3)[C@@H](CO)O1)Nc1ccc(Cl)cc1,9.1
CN1C(=O)c2cc(NC(=O)NCc3ccccc3)ccc2OC[C@H]2O[C@@H](CC(=O)NCC3CCCCC3)CC[C@@H]21,-8.8
O=C(C[C@@H]1CC[C@H]2[C@@H](COC[C@@H](O)CN2C(=O)c2cccnc2)O1)Nc1ccc(-c2ccccc2)cc1,4.4
O=C(C[C@@H]1CC[C@H](NC(=O)C2CCOCC2)[C@H](CO)O1)Nc1ccccc1,-2.9
COCC(=O)N1CC2(C1)CN(C(=O)COC)[C@@H](CO)c1c2c2ccc(OC)cc2n1C,2.8
COc1ccc(S(=O)(=O)N(C)C[C@H]2Oc3ccc(NC(=O)Cc4cn(C)c5ccccc45)cc3CC(=O)N([C@@H](C)CO)C[C@H]2C)cc1,1.3
C=C(C)Cn1c2ccc(NC(=O)NCc3ccccc3)cc2c(=O)n1C,-0.4
CCCCCCCCN1C(=O)[C@@H](CC(=O)NCC2CCCCC2)C[C@@]2(C(=O)OC)C1=C[C@H](C(C)(C)C)O[C@@H]2C,-4.7
O=C(C[C@H]1CC[C@H](NC(=O)CN2CCOCC2)[C@H](CO)O1)NCc1cccc(F)c1,-0.5
CC(C)C#Cc1ccc2c(c1)O[C@@H](CN(C)C(=O)c1ccncc1)[C@@H](C)CN([C@@H](C)CO)S2(=O)=O,0.0
CC(C)C#Cc1ccc([C@H]2[C@@H](C#N)N(C(=O)CN(C)C)[C@@H]2CO)cc1,0.0
Cc1ccc(S(=O)(=O)N[C@@H]2CC[C@@H](CCNC(=O)C3CCC3)O[C@@H]2CO)cc1,-4.3
C[C@H]1CN([C@@H](C)CO)C(=O)Cc2cc(NS(=O)(=O)c3cccs3)ccc2O[C@@H]1CN(C)S(=O)(=O)c1ccccc1,1.7
COc1ccccc1-c1ccc([C@H]2[C@@H](CO)N3CCCCN(C(=O)c4cccnc4)C[C@H]23)cc1,-2.9
COc1ccc2c3c(n(C)c2c1)[C@@H](CO)N(C(=O)Nc1ccc(F)cc1)CC31CN(C(=O)CN2CCOCC2)C1,-11
C[C@H]1CN([C@@H](C)CO)C(=O)Cc2cc(NC(=O)CCN3CCOCC3)ccc2O[C@H]1CN(C)Cc1ccc(Oc2ccccc2)cc1,4.6

# Two records picked at random from those above:
SMILES,MLL AF4-AF9 inh
CCCCCCCCN1C(=O)[C@@H](CC(=O)NCC2CCCCC2)C[C@@]2(C(=O)OC)C1=C[C@H](C(C)(C)C)O[C@@H]2C,-4.7
O=C(C[C@H]1CC[C@H](NC(=O)CN2CCOCC2)[C@H](CO)O1)NCc1cccc(F)c1,-0.5

# Further structures follow:
SMILES,MLL AF4-AF9 inh
C[C@H](CO)N1C[C@H](C)[C@H](CN(C)CC2CC2)Oc2ccc(NS(=O)(=O)c3ccc(Cl)cc3)cc2C1=O,-8.6
Cc1noc(C)c1NC(=O)Nc1ccc2c(c1)CC(=O)N([C@H](C)CO)C[C@H](C)[C@@H](CN(C)C(=O)Nc1ccc(C(F)(F)F)cc1)O2,-0.1
CNC[C@H]1Oc2ccc(NC(=O)Nc3ccc(F)cc3)cc2C(=O)N([C@@H](C)CO)C[C@H]1C,-0.2
C[C@H](CO)N1C[C@H](C)[C@@H](CN(C)C(=O)Cc2ccccc2)OCCCC[C@H](C)Oc2ccc(NC(=O)Nc3cccc4ccccc34)cc2C1=O,-1.7
O=C(NCc1ccc(F)cc1)[C@H]1[C@H](CO)[C@H]2Cn3c(cccc3=O)[C@@H]1N2CC1CCCC1,2.0
CCCNC(=O)N1C[C@H](O)COC[C@@H]2O[C@@H](CC(=O)N[C@@H]3CCN(Cc4ccccc4)C3)CC[C@H]21,-0.6
COc1ccc(S(=O)(=O)Nc2ccc3c(c2)CC(=O)N([C@H](C)CO)C[C@@H](C)[C@H](CN(C)S(=O)(=O)c2c(C)noc2C)O3)cc1,0.7
C[C@@H]1CCCCO[C@@H](CN(C)Cc2ccncc2)[C@@H](C)CN([C@@H](C)CO)C(=O)c2cc(NC(=O)CCC(F)(F)F)ccc2O1,-2.4
C[C@H](CO)N1C[C@H](C)[C@H](CN(C)C(=O)NC2CCCC2)Oc2ncc(Br)cc2C1=O,0.0&-5.2
CN(C)CC#Cc1ccc([C@@H]2[C@@H](CO)N3C(=O)CN(C(=O)c4cccc(F)c4)C[C@@H]23)cc1,1.7
C[C@@H]1CCCCO[C@@H](CN(C)C(=O)c2ccncc2)[C@H](C)CN([C@@H](C)CO)C(=O)c2cc(NS(=O)(=O)c3cn(C)cn3)ccc2O1,-8.0
COC(=O)[C@]12C[C@H](CC(=O)NCc3ccccc3)C(=O)N(CCC3=CCCCC3)C1=C[C@H](C(C)(C)C)O[C@@H]2C,2.5
c1cc(-c2cnc3cccnn23)c2cccnc2c1,0.3

# For reference, three of the compounds above:
SMILES,MLL AF4-AF9 inh
COc1ccc(S(=O)(=O)Nc2ccc3c(c2)C(=O)N([C@H](C)CO)C[C@H](C)[C@@H](CN(C)C(=O)Cc2ccccc2)OCCCC[C@@H](C)O3)cc1,-4.0
CC(C)NC(=O)Nc1ccc2c(c1)C(=O)N([C@@H](C)CO)C[C@@H](C)[C@@H](CN(C)S(=O)(=O)c1cccs1)OCCCC[C@H](C)O2,-1.8
COc1ccc(NC(=O)Nc2ccc3c(c2)C(=O)N([C@H](C)CO)C[C@H](C)[C@@H](CN(C)C(=O)Nc2ccc4c(c2)OCO4)OCCCC[C@H](C)O3)cc1,-1.9

# 4 of the compounds above, field by field.
> CC(C)NC(=O)N(C)C[C@H]1OCCCC[C@H](C)Oc2ccc(NC(=O)C3CCCCC3)cc2C(=O)N([C@@H](C)CO)C[C@@H]1C
  MLL AF4-AF9 inh: -0.1
> CC(C)C#Cc1ccc([C@H]2[C@@H](C#N)N(C(=O)CN(C)C)[C@@H]2CO)cc1
  MLL AF4-AF9 inh: 0.0
> C[C@@H]1CN([C@@H](C)CO)C(=O)c2cc(C3=CCCC3)cnc2O[C@@H]1CN(C)C(=O)CN(C)C
  MLL AF4-AF9 inh: -0.2
> COCC#Cc1ccc2c(c1)O[C@H](CN(C)S(=O)(=O)c1ccc(C)cc1)[C@@H](C)CN([C@H](C)CO)S2(=O)=O
  MLL AF4-AF9 inh: 0.1

# Screening results as filed in PubChem.
